# StopGo FLuc = FMDV 2A StopGo reporter, firefly signal. HEK cells with a luciferase reporter of 2A StopGo recoding. Potency, µM (highest dose often 57.5 µM), without a hit: top-dose signal change, negative = less light. actives 0.23% (n = 120,000); active = well fitted falling curve with a large enough effect; inconclusive = small, poorly fitted or top-dose-only effect; inactive = no such curve, though single readings can be large or run the other way; also: nearly all actives have a fitted effect of over 60% in size; overnight with compound
# StopGo RLuc = lowers the Renilla signal of an FMDV 2A StopGo reporter; HEK cells with a luciferase reporter of 2A StopGo recoding; Potency, µM (series often up to 57.5 µM), for inactives: top-dose signal change, negative = less light; actives 0.32% (n = 120,000); active means well fitted falling curve with a large enough effect; inconclusive means small, poorly fitted or top-dose-only effect; inactive means no such curve, though single readings can be large or run the other way; also: nearly all actives have a fitted effect of over 55% in size; overnight with compound
# The depositor's hits bear a star; ? = inconclusive; & = joins results of further samples; [ ] = dose if it differs, or a comment. % is scaled to controls: 0 for no effect and ±100 for the full control effect; potency is read from the fitted curve at half-maximal effect. This is a subset (hit frequency here may not be typical).
SMILES,StopGo FLuc,StopGo RLuc
Cc1cc(OCC(O)CN2CCN(c3cccc(Cl)c3)CC2)ccc1Cl (stereo not given),-11%,-13%
O=C(c1cc2ccccc2[nH]1)N1CCC(C(=O)N2CCCCCC2)CC1,107%[activator],8%
CN(C)CCNC(=O)CNc1nc(Cl)nc2nc[nH]c12,-3%,-4%
CCOC(=O)C1CCN([C@H]2CS(=O)(=O)C[C@@H]2S(=O)(=O)c2ccc(OC)cc2)CC1,2%,-6%
Cc1cc(=O)oc2cc(OCC(=O)OCC(=O)Nc3ccc4ccccc4c3)ccc12,73%[activator],-6%
Cc1ccc2c(Cn3nnc(-c4ccc(F)cc4)n3)cc(=O)oc2c1,39%[activator],-3%
CC(=O)c1cccc(NC(=O)c2c3c(nc4c2cnn4C(C)C)CCC3)c1,0%,48%[activator]
CCOC(=O)c1cccc(NC(=O)c2cc(CN3CCCC3)on2)c1,136%[activator],0%
Cc1ccc(C23CC4CC(CC(C(=O)Nc5ccccc5Br)(C4)C2)C3)cc1,-1%,-4%
CCN(CC)C(=O)C1=C(C)NC(=O)NC1c1ccc(C(=O)OC)cc1 (stereo not given),-8%,-6%
Cc1ccc(NC(=O)[C@H](Cc2ccccc2)NC(=O)OC(C)(C)C)cc1,6%,39%[activator]
CSc1ccc(/C=C2/C(=O)c3ccccc3OC2c2ccccc2)cc1 (stereo not given),88%[activator],-3%[1.06 µM]
COC(=O)c1cc(S(=O)(=O)Nc2ccc(C)c(F)c2)c[nH]1,12%,168%[activator]
CCC(C)NC(=O)NCc1c(-n2cccc2)sc2c1CCN(C)C2 (stereo not given),-14%,-6%
CC(C)c1ccc(C(=O)NCCC2=CCCCC2)cc1,159%[activator],31%[activator]
O=C(Cn1cc(C(F)(F)F)cc(Cl)c1=O)Nc1ccccc1Br,3%,-13%
CCOC(=O)N1CCN(C(=O)CN(c2cccc(Cl)c2)S(=O)(=O)c2ccccc2)CC1,2%,13%
CC(=O)Nc1ccc(S(=O)(=O)N(Cc2ccccc2)Cc2ccccc2)cc1,0%,161%[activator]
CC(C)Oc1ccc(CNC(=O)c2cc3ccccn3n2)cc1,268%[activator],15%
Cc1cccc(C)c1OCC(=O)Nc1ccccc1C(=O)O,181%[activator],10%
COc1ccc(NC(=O)c2oc3ccc(S(=O)(=O)N(C)C4CCCCC4)cc3c2C)cc1Cl,-7%,0%
O=C(NCCc1ccccc1)c1ccc2c(c1)N(Cc1ccccc1Cl)C(=O)c1ccccc1S2,-6%,-2%
CCOc1ccc(-n2nnc(C(=O)Nc3ccccc3C(F)(F)F)c2N)cc1,37%,10%
O=C(CSc1nc(-c2ccc(F)cc2)cc(C(F)(F)F)n1)NC1CCCCC1,13%,8%
C=CC[C@H]1CC=C[C@H](CC=C)[N+]1(C)C,0%&15%,3%&5%
O=C(Cn1c(=O)oc2cc(S(=O)(=O)N3CCCC3)ccc21)NCc1ccc(Cl)cc1,?,?
CC(C)(C)c1cc(C(=O)OCC(=O)NC(c2ccccc2)c2ccccc2)cc(C(C)(C)C)c1,23%,3%
CN(C(=O)c1cccc(Cl)c1)C1CCCCC1,48%[activator],6%
COC(=O)c1[nH]c(C)c(/C(O)=C2\C(=O)C(=O)N(CCCn3ccnc3)C2c2ccc(Cl)cc2)c1C (stereo not given),1%,-10%
CCCc1cc(=O)oc2cc(C)cc(OCC(=O)NCCCO)c12,-9%,-6%
CCOC(=O)c1scc(-c2ccccc2)c1S(=O)(=O)Nc1cc(C)cc(C)c1,30%,40%[activator]
CC1CCCN(S(=O)(=O)N(C)Cc2ccc3c(c2)OCCO3)C1 (stereo not given),20%,98%[activator]
CCc1ccc(-c2cc(C(F)(F)F)on2)cc1S(=O)(=O)NCc1ccccc1,13%,0%
Cc1ccccc1NC(=O)c1ccc(F)c(S(=O)(=O)N2CCc3ccccc3C2)c1,-22%,-8%
COc1ccc(C2NC(=S)NC(C)=C2C(C)=O)c(OC)c1 (stereo not given),20%,32%
CCc1ccccc1NC(=O)CSc1nc2cc(C(F)(F)F)ccc2s1,6%,24%
O=C(CC1N=C2c3ccccc3N=C(SCc3ccccc3F)N2C1=O)NCc1cccs1 (stereo not given),-15%,11%
O=C(CSc1nc2ccccc2o1)Nc1nc(-c2ccc(Cl)cc2)cs1,179%[activator],7%
CCOc1ccc(C(=O)Nc2sc(C(=O)OC(C)C)c(C)c2C#N)cc1,8%,0%
O=C(NCC(c1ccco1)S(=O)(=O)c1cccs1)c1ccc(F)c(F)c1 (stereo not given),-23%,-8%
Cc1ccc(Sc2cc(C)nc(N)n2)cc1,130%[activator],10%
COc1ccccc1NC(CC(=O)c1ccccc1)C(=O)OCC(=O)c1ccc(Br)cc1 (stereo not given),139%[activator],8%
CC(C#N)(NC(=O)CSc1nnc(-c2cccs2)n1C1CC1)C1CC1 (stereo not given),19%,11%
CCCn1nc(C(=O)OCC(=O)N2c3ccccc3CC2C)c2ccccc2c1=O (stereo not given),0%,50%[activator]
COCCCNC(=O)C1CCCCC1,6%,12%
CCCCn1c(=O)[nH]c(=O)c2c1nc(CNc1cccc(F)c1)n2C,-11%,-13%
Cc1ccc(S(=O)(=O)N2CCCc3ccccc32)cc1C,12%,106%[activator]
Cc1ccc(C(C)NC(=O)CCc2nc(C(C)C)no2)o1 (stereo not given),-2%,-8%
Cc1ccccc1CN1C(=O)c2ccccc2Sc2ccc(C(=O)NCCc3ccccc3)cc21,-4%,-12%
Cn1c(=O)[nH]c(=O)c2c1nc(SCCO)n2Cc1cccc(Br)c1,35%,41%
COCCn1c(=N)c(C(=O)NCC2CCCO2)cc2c(=O)n3ccccc3nc21 (stereo not given),-20%,-10%
Cc1ccc(-n2c(SCc3nnnn3-c3ccccc3)nnc2N2CCCCC2)cc1,-5%,56%[activator]
COc1cccc2ccn(CC(=O)NC(C)c3ccccc3)c12 (stereo not given),-1%,3%
Cc1ccc2c(CSc3nc4nc(C)cc(C)n4n3)cc(=O)oc2c1,0%,2%
CCc1ccccc1NC(=O)C1=C(C)C(=O)OC12CCCCCC2,-17%,-8%
COc1cccc(CNC(=O)CN(c2ccc(C(C)C)cc2)S(=O)(=O)c2c(C)noc2C)c1,-19%,-8%
CCc1ccccc1NC(=O)CCNS(=O)(=O)c1ccc2c(c1)CCCC(=O)N2,-3%,1%
CC(C)C(=O)Nc1ccc2[nH]cc(C(C(=O)O)N3CCN(c4ccccc4)CC3)c2c1 (stereo not given),-12%,-13%
CNc1c(NS(=O)(=O)c2ccc(Cl)s2)c(=O)oc2ccccc12,9%,6%
COc1cc(NC(=O)c2cc3cc4cc(OC)ccc4nc3o2)cc(OC)c1,-3%,1%

# Some of these compounds in order of molar mass, high to low.
SMILES,StopGo FLuc,StopGo RLuc
Cc1ccccc1CN1C(=O)c2ccccc2Sc2ccc(C(=O)NCCc3ccccc3)cc21,-4%,-12%
COc1cccc(CNC(=O)CN(c2ccc(C(C)C)cc2)S(=O)(=O)c2c(C)noc2C)c1,-19%,-8%
Cc1ccc(-n2c(SCc3nnnn3-c3ccccc3)nnc2N2CCCCC2)cc1,-5%,56%[activator]
CC(C)C(=O)Nc1ccc2[nH]cc(C(C(=O)O)N3CCN(c4ccccc4)CC3)c2c1 (stereo not given),-12%,-13%
CCc1ccccc1NC(=O)CCNS(=O)(=O)c1ccc2c(c1)CCCC(=O)N2,-3%,1%
CCCn1nc(C(=O)OCC(=O)N2c3ccccc3CC2C)c2ccccc2c1=O (stereo not given),0%,50%[activator]
COCCn1c(=N)c(C(=O)NCC2CCCO2)cc2c(=O)n3ccccc3nc21 (stereo not given),-20%,-10%
COc1cc(NC(=O)c2cc3cc4cc(OC)ccc4nc3o2)cc(OC)c1,-3%,1%
CC(C#N)(NC(=O)CSc1nnc(-c2cccs2)n1C1CC1)C1CC1 (stereo not given),19%,11%
Cc1ccc2c(CSc3nc4nc(C)cc(C)n4n3)cc(=O)oc2c1,0%,2%
CCCCn1c(=O)[nH]c(=O)c2c1nc(CNc1cccc(F)c1)n2C,-11%,-13%
CCc1ccccc1NC(=O)C1=C(C)C(=O)OC12CCCCCC2,-17%,-8%
COc1cccc2ccn(CC(=O)NC(C)c3ccccc3)c12 (stereo not given),-1%,3%
Cc1ccc(S(=O)(=O)N2CCCc3ccccc32)cc1C,12%,106%[activator]
Cc1ccc(C(C)NC(=O)CCc2nc(C(C)C)no2)o1 (stereo not given),-2%,-8%
COCCCNC(=O)C1CCCCC1,6%,12%

# Continuation:
SMILES,StopGo FLuc,StopGo RLuc
CCN1CC(CN(C)Cc2nc(Cc3ccccc3)no2)Oc2ccccc21 (stereo not given),8%,-8%
Cc1ccc(C(=O)Nc2ccccc2C(C)(C)C)cc1F,7%,6%
CCCCNc1cc(NC2CCCCC2)c2c3c(onc13)-c1ccccc1C2=O,-16%,-14%
CCc1ccccc1NS(=O)(=O)c1ccc2[nH]cc(C(=O)N3CCCCC3)c(=O)c2c1,-3%,-10%
CCOC(=O)c1cc2c(=O)n3ccccc3nc2n(Cc2ccco2)c1=NC(=O)c1ccccc1OC,-10%,-3%
COc1ccccc1-c1nc(S(=O)(=O)c2ccccc2)c(N2CCC(C)CC2)o1,-16%,122%[activator]
Cc1cn2c3c(=O)[nH]c(=O)n(C)c3nc2n1CCCN1CCN(c2ccccc2)CC1,-3%,-9%
CCOc1cc(/C=C(/C#N)c2ccccn2)ccc1OCC(F)(F)F,48%[activator],-1%
Cc1ccc2nc(/C(C#N)=C/c3cccc(O)c3)[nH]c2c1,188%[activator],17%
O=S(=O)(c1ccc2ccccc2c1)N(Cc1ccco1)Cc1cccs1,4%,221%[activator]
COc1cc2nc(Cl)nc(N)c2cc1OC,0%[11.5 µM],5%
O=C(Nc1cc(F)ccc1F)c1nn(-c2ccccc2)c(=O)c2ccccc12,16%,-6%
O=C(/C=C/c1ccccn1)Nc1cccc(OC2CCCC2)c1,83%[activator],-2%
O=C(COc1ccc2ccc(=O)oc2c1)NC(=O)NC1CCCC1,7%,-6%
Cc1ccc(SC2CC(C)OC2=O)cc1C (stereo not given),12%,-7%
CN1CCN(C(C(=O)O)c2cn(CC(=O)O)c3cc(Br)ccc23)CC1 (stereo not given),-3%,-9%
CCC(Cc1ccccc1)NC(=O)Cn1ncc2c3ccccc3n(Cc3ccc(F)cc3)c2c1=O (stereo not given),-3%,8%
CCc1ccccc1NC(=O)c1sc2nc3c(cc2c1N)CN(Cc1ccccc1)CC3,0%,-20%
Cc1nn(CC(=O)N2CCCCC2)c(=O)c2cc3occc3n12,4%,-3%
CN(C)c1ccc(C(=O)N2CCc3c(sc4ncnc(N)c34)C2)cc1,0%,21%
Cc1ccc(NC(=O)c2c(C)oc3ncnc(N4CCCCC4)c23)cc1Cl,2%,-7%
Cn1nc(CC(=O)NCc2ccccc2F)c2ccccc2c1=O,?,?
O=C(Cn1cnc2ccccc2c1=O)Nc1ccc2oc(C3CC3)nc2c1,13%,?
Cc1ccc2cccc(NC(=O)COc3ccc(C(C)(C)C)cc3)c2n1,14%,-6%
Cc1cccc(-c2nc3c(cnn3-c3ccccc3)c(=O)n2-c2ccc(Br)cc2)c1,29%,-5%
COC(=O)c1ccc(COC(=O)c2cc3ccccc3s2)o1,16%,-9%[1.06 µM]
Cc1ccc(C(C)NC(=O)Nc2ccc(Cl)cc2F)cc1C (stereo not given),3%,-1%
Fc1ccc(Oc2nc3ccccc3s2)c(Br)c1,116%[activator],4%
Nc1nc(Nc2cccc(Cl)c2)sc1C(=O)c1ccc(F)cc1,74%&67%[activator],9%&-4%
CC(C)(C)c1ccc(-c2nnc(SCC(=O)NCc3cccs3)n2Cc2ccco2)cc1,-8%,0%

# Next part, starting with the last 2 of the part before.
SMILES,StopGo FLuc,StopGo RLuc
Nc1nc(Nc2cccc(Cl)c2)sc1C(=O)c1ccc(F)cc1,74%&67%[activator],9%&-4%
CC(C)(C)c1ccc(-c2nnc(SCC(=O)NCc3cccs3)n2Cc2ccco2)cc1,-8%,0%
Cc1ccc(NC(=O)Nc2cc3c(cc2Oc2ccccc2)n(C)c(=O)n3C)c(Cl)c1,-2%,5%
CCN1CCN(c2nc(Nc3ccc(Cl)cc3)c3nccnc3n2)CC1,-24%,-23%
COc1ccccc1/C=C/C(=O)C12CC3CC(CC(C3)C1)C2,0%,41%
CCc1ccc(C(=O)C(C)Sc2nc3ccccc3c(=O)n2CCC(=O)OC)cc1 (stereo not given),9%,8%
O=C(OCC1(COC(=O)c2ccc(F)cc2)CCCC(COC(=O)c2ccc(F)cc2)(COC(=O)c2ccc(F)cc2)C1=O)c1ccc(F)cc1,-1%,5%
CN(C(=O)c1ccc(-c2nn(C)c(=O)c3ccccc23)cc1)C1CCCCC1,?,?
O=C(c1nc(-c2cccnc2)no1)N1CCN(c2ccc(F)cc2)CC1,7%,23%
CC(C)(C)c1ccc(C(=O)NC(Cc2c[nH]c3ccccc23)C(=O)OCC(=O)c2ccc(Br)cc2)cc1 (stereo not given),-17%,-8%
CC(O)C(NC(=O)c1cc(Cl)ccc1F)C(=O)O (stereo not given),3%,-7%
Cc1ccc(CSC2=Nc3ccccc3C3=NC(CCC(=O)NCc4cccs4)C(=O)N23)c(C)c1 (stereo not given),-20%,-8%
COc1cc2c(cc1OC)C(COc1ccc3c(C)cc(=O)oc3c1)N(C(=O)c1ccccc1F)CC2 (stereo not given),-19%,-4%
COc1ccc(C2=CC(c3ccc(N(C)C)cc3)n3nnnc3N2)cc1 (stereo not given),39%[activator],16%
O=C(Nc1ccc(S(=O)(=O)Nc2cnc3ccccc3n2)cc1)c1cccc(OC(F)F)c1,14%,49%[activator]

# Source: PubChem BioAssay
